# PrP 5UTR inh – suppresses PrP 5' UTR mRNA reporter expression; cell-based PrP 5' UTR mRNA reporter, plate reader; inhibition, % (concentration not given with the values); 340,000 compounds, 0.35% hits;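 active = every replicate at 50% or more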;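 note: 0 = median of the neutral control wells; tested in H4 reporter cells; numbers are from one replicate; inactives centre near -14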
# Mtb hypoxia inh – Mtb hypoxia fluorescent reporter inhibition; M. tuberculosis hypoxia-regulated fluorescent reporter, fluorescence; fluorescence inhibition, % (test concentration not listed); 300,000 compounds, 0.1% hits; AID 1159583;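 active = 35 to 45% if threefold the growth effect, above 45% if 1.5-fold the growth effect; inactive = the rest, general growth blockers included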;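 note: wells of about 50 µL received 100 nL stock; 0% = vehicle wells and 100% = reference inhibitor wells; whole bacteria with a GFP reporter of the hypoxia response; strong numbers were not always called active; many hits fall short of the cut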
# ugtP null kill – growth inhibition of S. aureus ugtP deletion strain; 330,000 compounds, 0.54% hits; AID 1259309; S. aureus RN4220 ugtP deletion, OD600 growth, 16 h; some inactives read as strong as hits; growth inhibition, % (test concentration not listed);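 active = z-score under -3 and OD600 up to 0.15 on both plates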;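 note: plate controls were untreated wells for no effect and antibiotic for full effect; wells of about 80 µL received 100 nL stock; the first replicate is given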
# Autofluor counter – flagged as autofluorescent in microsphere protease counterscreen; compound autofluorescence counterscreen, microsphere flow cytometry; hits give high values; AID 624483; 360,000 compounds, 3.1% hits; fluorescence intensity (no concentration beside the values);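 active = at least 3 SD above the mean of all compounds, about 16000 in these data; inconclusive = too few beads counted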;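 note: 100 nL of 1 mM stock went into each well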
# Sa RN4220 lethal – kills Staphylococcus aureus RN4220 | inhibition, % (test concentration not listed) | AID 1259311 | 330,000 compounds, 0.33% hits | S. aureus RN4220 growth, OD600, 16 h;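 active = z-score of -3 or lower and OD600 up to 0.18 on both plates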;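 note: plate controls were untreated cells for no effect and reference antibiotic for full effect; stock transfer was 100 nL into about 80 µL; one replicate is shown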
# BJeLR lethal – BJeLR cell viability loss | BJeLR (HRASV12) viability, CellTiter-Glo ATP luminescence, 48 h; reference of the scale not given here | inhibition, % (concentration not given with the values) | 300,000 compounds, 0.17% hits | AID 1554;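 active = replicate mean above 50%; inconclusive = above 50% but judged a plate artefact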;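 note: 50 nL library stock added to about 25 µL; numbers are from one replicate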
# Mtb hypoxia inh growth – second read-out of Mtb hypoxia inh, no call of its own (marks repeat the call); growth inhibition, %; measured here: M. tuberculosis growth (absorbance);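 0% = vehicle and 100% = reference antibiotic; read after six days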
# An asterisk follows results filed as active; ? = inconclusive; . = no result given.
SMILES,PrP 5UTR inh,Mtb hypoxia inh,Mtb hypoxia inh growth,ugtP null kill,Autofluor counter,Sa RN4220 lethal,BJeLR lethal
Cc1cccc(NC(=O)Cn2cc(C=O)c3ccccc32)c1,-21,0,-3,6,2878,-1.9,-5
CCCCn1c(N)c(N(CC(C)C)C(=O)C2CC(=O)N(c3ccccc3C(C)CC)C2)c(=O)[nH]c1=O (stereo not given),-4,1,9,4,6265,2.4,7
CSc1ccccc1OCc1cc(C(=O)NCCc2nc(C)cc(C)n2)no1,-39,-3,5,-13,6054,2.4,3
CC(NCCC1(Cc2ccccc2Cl)CCOC(C)(C)C1)c1cccs1 (stereo not given),-13,8,-1,-6,3848,4.9,-4
CC(C)[C@H](NC(=O)c1ccccc1)C(=O)OCC(=O)c1c(N)n(C)c(=O)n(C)c1=O,-18,-4,-3,3,5266,2.7,.
COc1ccc(NC(=S)Nc2ccc(N)c([N+](=O)[O-])c2)cc1,-18,.,.,4,7678,4.4,0
COc1ccc(CCNC(=O)C2CCC(CNS(=O)(=O)c3ccccc3)CC2)cc1OC (stereo not given),.,7,2,3,.,3.3,5
CCOc1ccc(NC(=O)[C@@H](NC(=O)c2ccccc2Br)C(C)C)cc1,-94,17,13,0,3341,4.0,-5
CC(Oc1ccc2c(-c3ccccc3)cc(=O)oc2c1)C(=O)NCCCN1CCOCC1 (stereo not given),3,8,-5,8,2810,5.5,-18
COc1cccc(=O)c2c(C)n(C)c(C)c12,-14,0,1,-11,8748,-4.5,-4
O=C(C(=O)N1CCN(c2ccccc2Cl)CC1)c1c[nH]c2ccccc12,-27,-7,-2,-7,5720,-1.4,-3
O=C1N=C(N2CCCCC2)S/C1=C\c1ccc(Cl)cc1,-21,10,15,8,3197,5.2,1
CC(=C/c1ccccc1)/C=N/NC(=O)c1cnccn1,-51,.,.,.,2249,.,-16
O=C(Nc1nc2ccccc2[nH]1)c1ccc(Cl)cc1,-10,7,-8,-15,5430,12,4
CC(=O)C[C@H]1c2cc(C(F)(F)F)ccc2S(=O)(=O)N1c1ccc(N(C)C)cc1,-29,.,.,.,3792,.,10
COc1ccc(CC2S/C(=N/N=Cc3ccccc3O)NC2=O)cc1 (stereo not given),.,6,8,7,.,5.3,.
COc1ccc(C(=O)NC(=S)Nc2ccc(CN3CCOCC3)cc2)cc1Cl,-5,14,7,86*,4263,7.7,6
Fc1ccc(COc2ccc(C=Nn3cnnc3)cc2)cc1,.,26,31,2,.,5.3,.
CCN(CC)S(=O)(=O)c1ccc(NC(=O)COC(=O)c2c[nH]c(=O)[nH]c2=O)cc1,-30,6,5,5,?,3.3,-7
COc1ccccc1C1CCN(C(=O)c2ccco2)CC1,-12,-4,3,14,5969,11,-2
CN(C)/C=N/c1nc(Sc2ccc(C(F)(F)F)cc2[N+](=O)[O-])n[nH]1,-24,.,.,.,6404,.,-11
NC(=O)C1CCN(C(c2ccccc2Cl)c2nnnn2Cc2ccc3c(c2)OCO3)CC1 (stereo not given),-16,5,8,1,4059,6.0,3
COc1ccc(CN2CCC(CNS(=O)(=O)c3cccc(C(F)(F)F)c3)CC2)cc1,-11,-2,7,5,3984,-3.0,-7
COC(=O)CSc1ccnc2cc(Cl)ccc12,-11,11,2,2,6494,5.1,13
O=C(CSc1nnc(-c2ccco2)n1-c1ccccc1)NCc1ccco1,-10,0,1,1,9126,-1.5,1
CCOC(=O)c1c(C)c(C(=O)NCc2cccs2)c(C)n1C,-10,16,11,9,17882*,5.2,2
COc1ccc2c(c1)C(C1C(=O)CCCC1=O)c1ccccc1O2 (stereo not given),-16,-1,0,2,2371,1.4,-12
O=C(Nc1ccccc1N1CCCC1)c1ccc(Cl)cc1Cl,-24,14,20,11,4543,9.9,-15
Cc1cccnc1NC(=O)Cn1nc([N+](=O)[O-])cc1C,-17,-2,7,9,4868,2.1,-1
CCOc1ccc(NC(=O)CN(C)C(=O)Cc2c[nH]c3ccccc23)cc1OCC,-14,10,6,9,?,2.7,-2
CC(=O)Nc1ccc(-c2csc(NC(C)c3ccccc3)n2)cc1 (stereo not given),-15,4,6,4,4965,8.2,0
Clc1ccc(NC2=NCCCCC2)cc1,-6,9,6,3,2823,1.3,14
CC(CCC(C)C)=NNC(=S)Nc1cc(S(=O)(=O)N2CCOCC2)ccc1N1CCOCC1,.,-5,-2,-4,.,3.2,.
CC(=O)C1=C(C)Nc2ncnn2C1c1ccc(C)cc1 (stereo not given),3,-1,-1,2,4171,2.5,-7
N#C/C(=C/c1cn(-c2ccccc2)nc1-c1cccc(OCc2ccccc2)c1)C(=O)NCCCn1ccnc1,-18,7,6,-2,11886,5.4,-4
COc1ccccc1C(=O)NNc1ncc(C)s1,-24,3,0,1,3320,4.9,-12
COc1cc(C(=O)NC(=S)N2C[C@H]3C[C@H](C2)c2cccc(=O)n2C3)cc(OC)c1OC,-22,.,.,-8,4034,1.0,-7
NC(=O)NC(=O)C(Nc1ccc2c(c1)CCC2)c1ccccc1 (stereo not given),-11,.,.,.,4630,.,-5
Cc1ccnc(SCCn2c(N3CCCCC3)nc3c2c(=O)n(C)c(=O)n3C)n1,0,-2,3,0,10516,2.4,-8
COc1cccc(C(=O)NCCS(=O)(=O)NC(C)CCc2ccccc2)c1 (stereo not given),7,0,-1,-2,?,-0.7,3
C=CC[C@H](CC(=O)N(CCO)Cc1ccccc1)C(=O)N[C@H](COC(=O)[C@H](CC=C)CC(=O)OC(C)(C)C)Cc1c[nH]c2ccccc12,-7,6,3,-20,3460,1.6,.
O=C(CSc1cn(CCNC(=O)c2ccccc2)c2ccccc12)NCc1ccco1,2,0,12,-10,5115,-14,-4
Nc1c(Cl)ncnc1NN=Cc1ccc2ccccc2n1,.,-8,-1,-22,.,-15,.
Brc1ccc(OCCN2CCOCC2)cc1,-37,3,-1,8,3570,-3.1,-4
CCOC(=O)NC(=O)c1cn(Nc2ccccc2C(F)(F)F)c(=O)[nH]c1=O,-17,1,0,2,.,2.2,5
CC(=O)Oc1c(I)cc(I)cc1C(=O)Nc1ccc(Cl)cc1,-18,.,.,.,6337,.,9
COC(=O)c1ccc(NC(=O)c2ccc3nc(C)sc3c2)cc1,-24,3,5,3,4119,-0.8,-3
Cn1c(=O)c(=O)n(C)c2cc(S(=O)(=O)N3CCc4ccccc43)ccc21,-22,6,6,1,9393,3.3,8
COc1ccccc1C(=O)N1CCN(Cc2nc(CC3CC3)no2)CC1,-12,20,-5,5,4135,1.5,6
CC1CCN(C(=O)CSc2nnc(Cc3cccn3C)n2CCc2ccccc2)CC1,-11,.,.,9,4658,6.7,-2
CCOC(=O)c1cc(C)sc1/N=C/C1=C(O)CCCC1=O,-3,.,.,.,2677,.,-9
CN(CCC#N)S(=O)(=O)c1cc2c3c(c1)CCN3C(=O)CC2,4,3,0,4,5534,4.8,11
O=C(NCCN1CCOCC1)c1ccc2c(c1)N(Cc1ccc(Cl)cc1)CCS2,-7,-10,6,-7,4626,-5.0,-8
CCCC(=O)Nc1ccc(C(=O)NNC(=O)c2cccc([N+](=O)[O-])c2)cc1,-3,13,-1,4,5045,2.8,18
CC1CN(c2nc(-c3ccccc3)nc3ccccc23)CC(C)O1 (stereo not given),-23,-5,-9,75,7258,-7.6,4
Cc1ccccc1CNC(=O)CC1C(=O)NCCN1CC1CCCCC1 (stereo not given),-24,12,11,-1,4359,10,-12
COc1c([N+](=O)[O-])c(=O)n(-c2ccccc2)c2ccccc12,-21,0,-6,0,1991,-0.8,-2
Cc1nc(S/C(=C/c2ccc(OCc3ccc(C(=O)O)cc3)cc2)C(=O)O)n[nH]1,-1,1,-3,1,3201,8.6,-3
COc1ccc(S(=O)(=O)N2CCC(C)CC2)cc1Br,-8,.,.,6,4450,2.4,-2
COc1ccc(-c2csc(NC(=O)c3nc(-c4ccccc4)oc3C)n2)cc1,-2,16,3,-2,2283,19,1

# Part of the list above in order of SMILES length, lowest first.
SMILES,PrP 5UTR inh,Mtb hypoxia inh,Mtb hypoxia inh growth,ugtP null kill,Autofluor counter,Sa RN4220 lethal,BJeLR lethal
CC(=O)Oc1c(I)cc(I)cc1C(=O)Nc1ccc(Cl)cc1,-18,.,.,.,6337,.,9
COc1ccc(-c2csc(NC(=O)c3nc(-c4ccccc4)oc3C)n2)cc1,-2,16,3,-2,2283,19,1
CCCC(=O)Nc1ccc(C(=O)NNC(=O)c2cccc([N+](=O)[O-])c2)cc1,-3,13,-1,4,5045,2.8,18

# Continued:
SMILES,PrP 5UTR inh,Mtb hypoxia inh,Mtb hypoxia inh growth,ugtP null kill,Autofluor counter,Sa RN4220 lethal,BJeLR lethal
Cc1cc(N2C(=O)C(O)=C(C(=O)c3cccs3)C2c2ccccc2)no1 (stereo not given),-31,4,3,4,17508*,3.3,-12
CCCn1nc(C(=O)OCC(=O)NC(C)c2ccccc2)c2ccccc2c1=O (stereo not given),-10,-3,3,1,4902,3.1,2
CCCN1C2CCCC1CC(NC(=O)c1cccc([N+](=O)[O-])c1)C2 (stereo not given),-14,-1,0,10,11218,7.8,4
O=C(CC1C(=O)OCC2CCCCN21)Nc1ccccc1C(F)(F)F (stereo not given),-38,-1,6,-1,4188,5.7,3
COc1cc(CN2CCNC(=O)C2CC(=O)N(C)CCC2CCOCC2)cc(OC)c1 (stereo not given),4,-1,-3,-3,4229,-4.6,-5
Cc1noc(NS(=O)(=O)c2ccc(NC(=O)CS(=O)(=O)c3ccccc3)cc2)c1C,-15,.,.,-5,2661,0.2,4
Cc1ccc(CC(=O)Nc2ccc(C(=O)N3CCCCC3)cc2)cc1,-17,.,.,.,?,.,-8
Cc1cccc(-n2c(/C=C/c3ccccn3)nc3ccccc3c2=O)c1,-11,-1,1,15,3507,43,-10
CCCn1c(Nc2ccc(Cl)cc2)nc2ccccc21,-14,11,-11,-5,7366,2.2,2
Cc1ccc(C(=O)NNC(=O)c2cccc3ccccc23)cc1,-6,5,5,-9,3686,-1.1,.
O=C(Nn1c(Cc2cccs2)nc2ccccc2c1=O)c1cccs1,-13,2,8,-5,10507,4.7,-1
COc1ccc(N2CC(C)Cn3c2nc2c3c(=O)n(Cc3ccccc3F)c(=O)n2C)c(OC)c1 (stereo not given),-14,0,5,-9,5761,-3.4,-3
CNC(=O)CN(C)S(=O)(=O)c1ccc(F)cc1,-9,0,4,0,23131*,-1.9,2
CC(=NOCC(=O)Nn1c(C)nc2ccccc2c1=O)c1cccs1,.,-1,-1,7,.,13,.
COc1cccc(C(=O)OCC(=O)c2c[nH]c3ccccc23)c1OC,-26,5,11,-7,2872,1.0,.
CCOC(=O)C1CCN(C(=O)c2c(-c3c(Cl)cccc3Cl)noc2C)CC1,7,.,.,-1,3647,13,-4
COc1ccccc1Cn1c(=O)c2ccccc2n2c(SCC(=O)N3CCCCC3)nnc12,-15,4,2,-1,2429,0.8,-10
COC(=O)c1ccc(NC(=O)c2ccccc2N(C)S(C)(=O)=O)cc1,-21,.,.,1,4104,-0.4,-2
COc1ccc(S(=O)(=O)N2N=C(c3cccc(NS(C)(=O)=O)c3)CC2c2ccco2)cc1 (stereo not given),-10,-9,5,-8,5992,-0.8,-3
CN1CCCN(C(=O)COc2ccc(Br)cc2)CC1,-25,4,-11,-3,6263,0.1,-14
CCC(CC)NC(=O)CSc1ccc(S(=O)(=O)N2CCCCC2)cn1,-4,0,-1,-3,3869,-2.3,.
O=C(Nc1cccnc1)C1CCC(CNS(=O)(=O)c2cccc3nsnc23)CC1 (stereo not given),-2,-5,-3,7,4195,-1.1,4
COc1cc(C(=O)Nc2nnc(-c3sccc3C)s2)cc(OC)c1OC,-7,1,14,1,4658,4.6,-8
Cn1c(SCC(=O)N/N=C/c2cc([N+](=O)[O-])ccc2O)nnc1-c1ccccc1,-3,.,.,.,6526,.,13
CCOCCCNC(=O)N[C@@H](C)C(=O)OC,-42,9,12,0,9763,5.0,1

# Given bar-delimited: entries from further up
smiles | PrP 5UTR inh | Mtb hypoxia inh | Mtb hypoxia inh growth | ugtP null kill | Autofluor counter | Sa RN4220 lethal | BJeLR lethal
COC(=O)c1ccc(NC(=O)c2ccccc2N(C)S(C)(=O)=O)cc1 | -21 | . | . | 1 | 4104 | -0.4 | -2
COc1cc(C(=O)Nc2nnc(-c3sccc3C)s2)cc(OC)c1OC | -7 | 1 | 14 | 1 | 4658 | 4.6 | -8
COc1ccccc1Cn1c(=O)c2ccccc2n2c(SCC(=O)N3CCCCC3)nnc12 | -15 | 4 | 2 | -1 | 2429 | 0.8 | -10
